gsp ag – agonists of gsp mutant (McCune-Albright syndrome); gsp mutant cells, cAMP HTRF, 30 min; control for the full effect not named in the record; Potency, µM (doses to about 76.9 µM), for inactives: top-dose activation (cAMP increase), most hits filed as activators; 0.13% of 340,000 active; AID 624287; active = well fitted activation curve with a large enough effect; inconclusive = small, poorly fitted or top-dose-only effect, or another doubt; inactive = no such curve, though single readings can be large or run the other way; cell line not stated here;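 further: phosphodiesterase inhibitor Ro 20-1724 added with compounds to block cAMP breakdown; potency means the concentration at half of the fitted maximal effect; nearly all actives have a fitted effect of over 60% in size; about a fifth of the inactives were tested at one dose only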
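Cells in DMEM/10% FBS with G418 were pretreated with compounds in DMSO plus […] (300 uM stock) for 30 min at 37C. cAMP was measured by HTRF (cAMP-d2 plus anti-cAMP antibody-K) after 30 min at room temperature.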
TRPML1 inh – inhibitors of human TRPML1 channel | Q9GZU1 | TRPML1-inducible cells, Ca2+ dye fluorescence, FDSS; active compounds read low; inhibition of EC80 agonist-evoked calcium signal | activity change, negative = inhibition, % (test concentration not listed) | 0.02% of 390,000 active | AID 624415; in the data active means activity change below about -50%; inconclusive means about -30% to -50%; inactive means above about -30%;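 further: stimulus is agonist 54-4 at its EC80 concentration; on the % scale 0 is the no-effect control and ±100 the full control effect; compound concentration not given in the record; the text of the record puts the active cut at -80%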
Target sequence (Q9GZU1 whole entry, looked up): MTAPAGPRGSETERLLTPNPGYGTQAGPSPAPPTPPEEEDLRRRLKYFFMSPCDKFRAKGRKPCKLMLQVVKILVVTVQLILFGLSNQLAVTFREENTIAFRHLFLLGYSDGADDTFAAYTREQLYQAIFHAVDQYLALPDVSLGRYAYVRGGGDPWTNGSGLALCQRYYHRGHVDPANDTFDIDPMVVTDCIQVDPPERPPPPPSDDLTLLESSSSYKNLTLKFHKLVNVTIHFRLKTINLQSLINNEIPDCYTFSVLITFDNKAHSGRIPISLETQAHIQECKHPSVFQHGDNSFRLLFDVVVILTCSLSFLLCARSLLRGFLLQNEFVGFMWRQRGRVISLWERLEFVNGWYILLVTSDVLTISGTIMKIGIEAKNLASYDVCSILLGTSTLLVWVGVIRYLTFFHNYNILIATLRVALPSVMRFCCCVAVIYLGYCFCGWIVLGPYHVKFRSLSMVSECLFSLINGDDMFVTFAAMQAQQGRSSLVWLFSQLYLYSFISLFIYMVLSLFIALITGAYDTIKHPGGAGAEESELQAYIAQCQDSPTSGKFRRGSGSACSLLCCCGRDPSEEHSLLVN
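Calcium fluorescence in TRPML1-DL cells induced overnight with Tet: a 110 s read after compound pin addition, then a 110 s antagonist read after challenge with 54-4 at 4 uM final (EC80).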
TRPML1 agonist – human mucolipin-1 channel agonism. TRPML1-expressing cells, Ca2+ dye fluorescence, FDSS; host cell line not named in the record; reference of the full effect not given here. activation, % (test concentration not listed). 0.12% of 410,000 active; in the data active = activation above about 50%; inconclusive = about 30% to 50%; inactive = below about 30%; further: 0% is about no effect; the text of the record puts the active cut at 80%
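Calcium fluorescence on an FDSS kinetic reader gave the read-out. Tet-induced TRPML1-DL cells were plated overnight, dye-loaded (Ca8 with quencher, 45-90 min, room temperature, dark), then read 110 s after compound addition, and again 110 s after 4uM final 54-4 (EC80).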
ClpP mod – qHTS Assay for Activators of ClpP; 1.9% of 340,000 active; purified B. subtilis ClpP, FRET peptide cleavage, 20 min; AID 651965, 2013; Potency, µM (highest dose often 57.5 µM), for the others: top-dose activity change, negative = active; active = well fitted falling curve with a large enough effect; inconclusive = small, poorly fitted or top-dose-only effect; inactive = no such curve, though single readings can be large or run the other way; further: potency means the concentration at half of the fitted maximal effect; the source files actives as falling curves though it sought activators and does not explain the sign; nearly all actives have a fitted effect of over 65% in size; many hits overshoot -100%
Target sequence (P80244 whole entry, looked up): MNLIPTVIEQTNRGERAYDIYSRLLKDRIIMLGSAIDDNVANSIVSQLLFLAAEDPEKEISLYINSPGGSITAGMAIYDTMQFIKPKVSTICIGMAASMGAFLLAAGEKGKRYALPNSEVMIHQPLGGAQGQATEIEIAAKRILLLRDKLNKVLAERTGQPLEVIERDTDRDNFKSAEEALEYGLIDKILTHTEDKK
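Purified B. subtilis ClpP, 10 microg/mL final in Tris/HCl pH8 with KCl, BSA, glycerol and Tween-20, cleaved an Abz/nitrotyrosine-quenched decapeptide. Fluorescence (ex 320, em 430) was read at 0 and 20 min at room temperature. Delta was normalized to 5.8 microM ADEP and DMSO/no-enzyme controls.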
gsp antagonist – antagonizes gsp, the McCune-Albright syndrome mutation. gsp-mutant cells, cAMP HTRF, 30 min; control for the full effect not named in the record. Potency, µM (top dose mostly 76.9 µM), without a hit: at the top dose activity change, negative = inhibition, hits mostly inhibitors. 0.4% of 340,000 active. AID 624288; active = falling curve of any shape with a large fitted effect; inconclusive = falling curve, mostly with a smaller effect; inactive = flat or rising curve; cell line not stated here;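 further: intracellular cAMP measured with PDE inhibitor Ro 20-1724 present during compound exposure; potency means the concentration at half of the fitted maximal effect; on the % scale 0 is the no-effect control and ±100 the full control effect; nearly all actives have a fitted effect of over 65% in size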
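HTRF cAMP measurement after 30 min RT detection following 30 min, 37C compound treatment alongside […] (added as 300 uM solution) in G418-selected cells seeded at 2000/well and grown 16–24 h.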
Menin MLL FP FL – menin-MLL binding inhibition, fluorescein peptide | 290,000 tested, under 10 active | FP activity change, % at 61.4 µM | Fluorescence polarization, fluorescein-MLL peptide displacement from menin; inconclusive = falling polarisation curve, or a change in total fluorescence; inactive = total fluorescence flat and polarisation flat or rising; no compound was filed as active; the % refers to the polarisation; negative = inhibition;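 further: % of control where 0% means no effect; inhibitors lower the polarisation; unlabelled MLL peptide was the positive control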
The depositor's hits bear a star; ? = inconclusive; · = not tested or not shown; & = joins results of further samples; [ ] = another dose, or the depositor's remark. Some of the compounds tested; rates above refer to the full screens.

1. CCCN(CCC)C(=O)C(CCC(=O)O)NC(=O)c1ccccc1 (stereo unspecified)
2. CN1CCC(=C2c3ccccc3CC(=O)c3sccc32)CC1
3. Nc1ncnc(Nc2ccccc2)n1
4. CCC(Cc1c(I)cc(I)c(N)c1I)C(=O)O (stereo unspecified)
5. CCOc1ccccc1NC(=O)CSc1nc2ccccc2c2nc(CCn3cncc3C)nn12
6. O=C1CCc2cc(OCCCCc3nnnn3C3CCCCC3)ccc2N1
screen / no.,1,2,3,4,5,6
gsp ag,·,·,·,·,·,·
TRPML1 inh,3,8&-2&-7,4,0,-7,3
TRPML1 agonist,-0.3,0.3&-0.2&1.3,-0.8,0.3,1.8,-0.4
ClpP mod,0.3%,-0.4%&2.0%&-0.2%,0.4%,1.6%,-0.4%,0.5%
gsp antagonist,-1%,-4%&3%&7%,4%,-1%,·,?
Menin MLL FP FL,-1.4&-3.5&4.2,0.2,10,-1.4,·,?

7. CCCCOC(=O)c1ccc(N)cc1
8. COc1ccc(S(=O)(=O)Nc2nnc(CC(C)C)s2)cc1
9. Cc1ccsc1/C=C/C1=NCCCN1C
10. CC[C@]12CCCN3CCc4c(n(c5ccccc45)[C@@](O)(C(=O)OC)C1)[C@@H]32
11. CN=C(N)NC(=O)Nc1c(C)cccc1C
12. CCC12CCCN3CCc4c(n(c5ccccc45)C(O)(C(=O)OC)C1)C32 (stereo unspecified)
screen / no.,7,8,9,10,11,12
gsp ag,·,-4%,·,-21%,-6%[15.4 µM],5%
TRPML1 inh,28,6,-2&-5&6,-3,25,17
TRPML1 agonist,2.0,0.2,-0.7&-0.3&-0.7,-0.6,0.6,3.5
ClpP mod,0.5%,-1.4%,1.3%&0.4%&-0.5%,-0.1%,·,?
gsp antagonist,2%,-19%,0%&-12%&-3%,2%,19%,-3%
Menin MLL FP FL,1.4,-3.1&-4.0&0.6,2.8&-2.5,·,1.7,?

13. Nc1cc(=O)[nH]c(N)n1
14. COc1c(O)cc2c(c1O)[C@@H]1O[C@H](CO)[C@@H](O)[C@H](O)[C@H]1OC2=O
15. O=C(O)CCCCCCCC(=O)O
16. CCN(CC)CCOC(=O)C(c1ccccc1)c1ccccc1
17. CC1(C)Oc2ccc(C#N)cc2[C@@H](N2CCCC2=O)[C@@H]1O
18. CN1CCN(c2c(F)cc3c(=O)c(C(=O)O)cn4c3c2SCC4)CC1
screen / no.,13,14,15,16,17,18
gsp ag,·,?,·,·,·,-20%
TRPML1 inh,-5,-11,12,19,-10,-19
TRPML1 agonist,-0.4,-0.4,0.2,-1.0,-0.6,-0.5
ClpP mod,2.4%,0.4%,2.4%,1.0%,-1.1%,28µM*
gsp antagonist,-5%,12%,-11%,5%,6%,5%
Menin MLL FP FL,-0.5&-16,1.8,-6.2&-2.4&0.2&0.6,1.8,2.3,-2.8&-3.3&1.2

19. COc1cc(C(=O)NCCCCCC(=O)O)cc(OC)c1OC
20. CN(C)CCOC(=O)C(c1ccccc1)C1(O)CCCC1 (stereo unspecified)
21. C#C[C@]1(O)CC[C@H]2[C@@H]3CCC4=CC(=O)CC[C@@H]4[C@H]3CC[C@@]21CC
22. CCOc1ccc(NC(=S)N2CCC(C(O)(c3ccccc3)c3ccccc3)CC2)cc1
23. COc1cc(C(=O)NC(c2ccccc2Cl)c2cc(Cl)c3cccnc3c2O)cc(OC)c1OC (stereo unspecified)
24. OCC(O)CN1CCN(c2ccccc2)CC1 (stereo unspecified)
screen / no.,19,20,21,22,23,24
gsp ag,·,·,·,0%,·,·
TRPML1 inh,25,-10,51&35,7,-8,0
TRPML1 agonist,0.3,1.0,-0.6&1.7,3.8,0.1,0.3
ClpP mod,-1.8%,-2.1%,-0.2%&-2.2%,-1.6%,0.8%,0.8%
gsp antagonist,7%,-5%,-2%&12%,-7%,·,8%
Menin MLL FP FL,-2.1&-2.8,-4.5&0.1,-0.2&-4.2&-3.8,2.5,·,-3.5&-4.3

25. CC1CCc2c(N3CCC(O)CC3)c(F)cc3c(=O)c(C(=O)O)cn1c23 (stereo unspecified)
26. COc1ccc(Sc2ccc(NC(=O)c3ccccc3Cl)cc2C#N)cc1
27. Cc1nc2nc(NC(=O)c3cccc(Cl)c3)[nH]n2c(=O)c1Cc1ccccc1
28. COc1ccc2c(CNCCc3ccccc3OC)c(C(=O)O)n(Cc3ccc(F)cc3Cl)c2c1
29. C/C=C(/C)C(=O)O[C@@H]1c2cc3c(c4c2[C@@]2(CO4)C(=O)C(OC)=C(OC)C=C2C[C@@H](C)[C@H]1C)OCO3
30. CC(C)(C(=O)c1cccnc1)c1cccnc1
screen / no.,25,26,27,28,29,30
gsp ag,·,-14%,·,·,22%,·
TRPML1 inh,-19,2,0,17,26,5&2
TRPML1 agonist,0.1,-0.2,-0.2,0.1,-0.9,-0.8&0.5
ClpP mod,-19%,?,-3.8%,-17%,-0.6%,1.5%
gsp antagonist,10%,-12%,·,·,-12%,-7%
Menin MLL FP FL,2.4,-0.4,·,·,-0.8,-3.3[24.8 µM]

31. COc1ccccc1OC(=O)Oc1ccccc1OC
32. COc1ccc(Cn2c(CCC(=O)Nc3cccc(OC)c3)nc3cccnc32)cc1
33. Cc1nc2c([nH]1)c(=O)n(C)c(=O)n2Cc1ccco1
34. Cc1ccc(CNC(=O)C2CCN(S(=O)(=O)c3c(C)noc3/C=C/c3ccccc3F)CC2)o1
35. Cc1cc(Cl)ccc1NC(=O)Cn1nc(C)c2c(C)n(-c3ccccc3)nc2c1=O
36. CN1CCN(CCCN2c3ccccc3Sc3ccc(S(=O)(=O)N(C)C)cc32)CC1
screen / no.,31,32,33,34,35,36
gsp ag,-5%,·,·,·,·,·
TRPML1 inh,-8,-13,·,1,1,-9
TRPML1 agonist,0.6,2.7,-0.7&-0.6,0.4,-0.1,2.5
ClpP mod,·,-1.8%,-1.1%&0.8%,?,-3.2%,0.7%
gsp antagonist,-1%,·,·,·,·,0%
Menin MLL FP FL,7.1,·,?,·,·,1.4[24.8 µM]

37. O=c1c(O[C@@H]2O[C@H](CO)C(O)C2O)c(-c2ccc(O)c(O)c2)oc2cc(O)cc(O)c12 (stereo partly specified)
38. COc1cc2c(c(OC)c1OC)-c1c(cc(OC)c(OC)c1OC)C[C@H](C)[C@H](C)C2
39. CC(C)(C)c1ccc(S(=O)(=O)c2cnc(SCC(=O)Nc3ccc(F)c(Cl)c3)[nH]c2=O)cc1
40. Cc1oncc1C(=O)Nc1ccc(C(F)(F)F)cc1
41. Cc1cc(NC(=O)C2CCN(S(=O)(=O)c3ccc4[nH]c(=O)oc4c3)CC2)ccc1Br
42. O=C(NCCN1CCOCC1)c1ccc(Cl)cc1
screen / no.,37,38,39,40,41,42
gsp ag,·,·,·,·,·,·
TRPML1 inh,1,6,7,-5,-8,-2
TRPML1 agonist,-1.1,1.9,2.1,0.3,2.4,-0.4
ClpP mod,1.3%,-1.3%,-2.0%,0.6%,-3.1%,0.1%
gsp antagonist,3%,-20%,·,-6%,·,2%
Menin MLL FP FL,·,3.4,·,-1.4,·,-1.0

43. Cc1ccc(Cc2c(C)nc3c(-c4ccccc4)c(C)[nH]n3c2=O)cc1
44. CCCc1cc(C(N)=S)ccn1
45. COc1cc(NC(=O)c2cc(C3CC3)on2)c(OC)cc1Cl
46. CC(=O)OCC(=O)C1(O)CCC2C3CCC4=CC(=O)C=CC4(C)C3(F)C(O)CC21C (stereo unspecified)
47. O=C1c2c(O)cccc2C(C2OC(CO)[C@@H](O)[C@H](O)[C@H]2O)c2cc(CO)cc(O)c21 (stereo partly specified)
48. O=C1c2ccccc2C(=O)c2c(O)c(O)cc(O)c21
screen / no.,43,44,45,46,47,48
gsp ag,·,·,17%,-18%,·,·
TRPML1 inh,0,4,15,-2,11,5
TRPML1 agonist,0.7,-1.0,-0.1,-0.6,-0.3,0.4
ClpP mod,3.7%,-0.9%,-1.8%,0.8%,0.9%,3.8%
gsp antagonist,·,2%,?,6%,6%,-17%
Menin MLL FP FL,·,3.1&3.2,4.8,·,·,?

49. CCOC(=O)Nc1ccc2c(c1)N(C(=O)CCN1CCOCC1)c1ccccc1S2
50. O=C(c1ccccc1)c1ccc2n1CCC2C(=O)O (stereo unspecified)
51. CCOC(=O)Nc1ccc(NCc2ccc(F)cc2)nc1N
52. COc1ccc(NC(=O)C2CCCN(c3nnc(C)c4c(C)n(-c5ccccc5)nc34)C2)cc1Cl (stereo unspecified)
53. Oc1cc2c(cc1O)C1c3ccc(O)c(O)c3OCC1(O)C2 (stereo unspecified)
54. COc1cc(C)nc(-n2nc(C)cc2OC)n1
55. CN(C)CCC[C@@]1(c2ccc(F)cc2)OCc2cc(C#N)ccc21
screen / no.,49,50,51,52,53,54,55
gsp ag,?,·,·,·,·,·,·
TRPML1 inh,47&-14,31,-8,41,·,-8,-5
TRPML1 agonist,1.2&0.1,0.0,9.6&2.5&16,3.4,-0.3,0.2,2.8
ClpP mod,0.9%,0.5%,-28%,3.8%,-3.2%&-0.4%,-5.2%,1.8%
gsp antagonist,4%&-1%,-12%,2%,·,-28%,-3%,1%
Menin MLL FP FL,2.5,4.6&-1.4&-0.5,?,·,?,1.8,-0.4&-4.6

Among those listed so far, nine have fluorine:
18. CN1CCN(c2c(F)cc3c(=O)c(C(=O)O)cn4c3c2SCC4)CC1
25. CC1CCc2c(N3CCC(O)CC3)c(F)cc3c(=O)c(C(=O)O)cn1c23 (stereo unspecified)
28. COc1ccc2c(CNCCc3ccccc3OC)c(C(=O)O)n(Cc3ccc(F)cc3Cl)c2c1
34. Cc1ccc(CNC(=O)C2CCN(S(=O)(=O)c3c(C)noc3/C=C/c3ccccc3F)CC2)o1
39. CC(C)(C)c1ccc(S(=O)(=O)c2cnc(SCC(=O)Nc3ccc(F)c(Cl)c3)[nH]c2=O)cc1
40. Cc1oncc1C(=O)Nc1ccc(C(F)(F)F)cc1
46. CC(=O)OCC(=O)C1(O)CCC2C3CCC4=CC(=O)C=CC4(C)C3(F)C(O)CC21C (stereo unspecified)
51. CCOC(=O)Nc1ccc(NCc2ccc(F)cc2)nc1N
screen / no.,18,25,28,34,39,40,46,51
gsp ag,-20%,·,·,·,·,·,-18%,·
TRPML1 inh,-19,-19,17,1,7,-5,-2,-8
TRPML1 agonist,-0.5,0.1,0.1,0.4,2.1,0.3,-0.6,9.6&2.5&16
ClpP mod,28µM*,-19%,-17%,?,-2.0%,0.6%,0.8%,-28%
gsp antagonist,5%,10%,·,·,·,-6%,6%,2%
Menin MLL FP FL,-2.8&-3.3&1.2,2.4,·,·,·,-1.4,·,?

55. CN(C)CCC[C@@]1(c2ccc(F)cc2)OCc2cc(C#N)ccc21
screen / no.,55
gsp ag,·
TRPML1 inh,-5
TRPML1 agonist,2.8
ClpP mod,1.8%
gsp antagonist,1%
Menin MLL FP FL,-0.4&-4.6

Screening data (PubChem BioAssay)
